GIV Gai3 FP: inhibitors of GIV peptide binding to Galpha-i3, primary screen, biochemical, fluorescence polarization, FITC-GIV GBA peptide, rat Galphai3; 90 min; stronger effect = lower value; scaled: aluminum fluoride 0%, vehicle 100%; percent of control (FP), % (no concentration beside the values); actives 0.42% (n = 210,000);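 active = replicate mean at 85% of control or lower, very high polarization wells dropped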;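 also: wells of about 15 µL received 100 nL stock; the first replicate is given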
Target sequence (P08753 whole entry, looked up): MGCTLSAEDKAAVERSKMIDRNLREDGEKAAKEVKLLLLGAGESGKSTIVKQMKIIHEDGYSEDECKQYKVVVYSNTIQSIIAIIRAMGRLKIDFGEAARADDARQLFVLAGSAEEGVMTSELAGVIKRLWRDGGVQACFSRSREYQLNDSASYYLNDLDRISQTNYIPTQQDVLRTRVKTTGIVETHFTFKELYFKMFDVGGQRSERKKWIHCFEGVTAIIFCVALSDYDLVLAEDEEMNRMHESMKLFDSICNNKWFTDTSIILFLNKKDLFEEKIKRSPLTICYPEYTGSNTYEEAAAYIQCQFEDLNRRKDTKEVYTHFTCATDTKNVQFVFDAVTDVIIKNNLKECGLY
Sa growth inh: S. aureus growth inhibition at 42 and 30 °C, primary screen, LtaS inhibitor project, RN4220, two temperatures; OD600, 20 h, 42 °C; stronger effect = lower value; relative growth, % (no concentration beside the values); actives 0.53% (n = 170,000); AID 720641, 2013;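 active = growth at 42 °C up to 50% and 20 or more points under that at 30 °C, or under 10% at both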;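 also: 300 nL library stock went into each well; scaled to the means of positive and negative controls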
HCMV UL50-53 inh: inhibitors of HCMV UL50-UL53 interaction, biochemical, HTRF; normalized percent inhibition; inhibition, % (concentration not given with the values); actives 0.15% (n = 190,000); AID 1918969, 2023;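 active = both replicates at 50% or more, plus weaker picks with an unusually low signal ratio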;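 also: stock transfer was 100 nL into about 20 µL; 0% = negative control wells and 100% = wells with untagged competitor protein; inactives centre near -12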
Sa growth inh second temp: recorded beside Sa growth inh, whose call it bears; relative growth, %; measured here: growth at 30 °C;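 optical density after 20 h as mean of two plates; 100% = untreated growth and lower means inhibition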
The depositor's hits bear a star; . = no result given; & = joins results of further samples.

SMILES	GIV Gai3 FP	Sa growth inh	Sa growth inh second temp	HCMV UL50-53 inh
CN(C)CCCNc1nc(-c2ccc(Cl)cc2)cs1	103	135	93	-6
Cc1cc(C2=NNC(=NCC3CCCO3)SC2)c(C)n1-c1ccc(F)cc1 (stereo unspecified)	.	89	74	-34
Cc1ccc(NC(=O)Cc2c(C(=O)O)c(C)cn2C)cc1Cl	108	122	89	.
CCN1CCN(c2cc(C)c3cc(NC(=O)/C=C/c4cccc(Cl)c4)ccc3n2)CC1	103	83	93	-23
Cc1ccc(/C=C2/Sc3ccccc3N(CC(=O)NCCCN3CCN(C)CC3)C2=O)cc1	106	111	105	-48
Cc1ccc(-c2csc(NC(=O)C(C)C)n2)cc1	.	110	105	-4
O=c1c2cnn(-c3ccc(Cl)cc3)c2ncn1Cc1ccc(Cl)cc1Cl	102	102	90	-13
CN(C)/C(=N\S(=O)(=O)c1ccc(F)cc1)c1ccccc1	99	102	84	.
O=C(Nc1ccccc1)Nc1ccccc1C(=O)N1CCOCC1	.	65	57	0
Fc1ccccc1N1CCN(c2ncnc3c2nc2n3CCCCC2)CC1	99	105	95	.
CCS(=O)(=O)N1CCc2cc(C(=O)Nc3ccc(Br)cc3F)ccc21	103	94	94	18
CCCn1c(=O)[nH]c2cc(-c3noc(CN4C(=O)COc5ccc(Cl)cc54)n3)ccc21	105	.	.	-13
COC(=O)CN1C(=O)CSc2ccc(S(=O)(=O)Nc3cccnc3)cc21	102	.	.	-11
COc1ccc(S(=O)(=O)N(CCc2ccccc2)CC(=O)Nc2cccc(Cl)c2)cc1OC	103	112	73	.
Cc1ccc(C(=O)NS(=O)(=O)c2ccccc2)cc1	99	113	96	-39
COc1cccc(CNC(=O)COC(=O)C2CCN(S(=O)(=O)c3ccc(C)cc3)CC2)c1	.	104	94	9
O=C(CSc1c2c(nc3cc(Cl)ccc13)CCCC2)N1CCN(c2ccccc2)CC1	106	104	73	-14
CCOC(=O)c1ccc(NC(=O)C2CC(=O)NC(=Nc3ccc(C)c(C)c3)S2)cc1 (stereo unspecified)	103	111	94	-24
CCOc1ccc(C(=O)N2CC(=O)Nc3ccc(F)cc3C2c2ccc(F)cc2)cc1 (stereo unspecified)	107	99	105	20
Cc1cc(C)nc(SCc2ccc(C(=O)NN)cc2)n1	.	97	99	6

Some of these compounds in order of the Sa growth inh second temp value, lowest first:
smiles | Sa growth inh second temp
COc1ccc(S(=O)(=O)N(CCc2ccccc2)CC(=O)Nc2cccc(Cl)c2)cc1OC | 73
Cc1ccc(NC(=O)Cc2c(C(=O)O)c(C)cn2C)cc1Cl | 89
CCN1CCN(c2cc(C)c3cc(NC(=O)/C=C/c4cccc(Cl)c4)ccc3n2)CC1 | 93

(continued)
SMILES	GIV Gai3 FP	Sa growth inh	Sa growth inh second temp	HCMV UL50-53 inh
Cc1cc2n(n1)CCCN2CC(=O)Nc1cc(Cl)ccc1C	100	.	.	-16
Nc1cc(=O)n(Cc2ccccc2)c(=O)n1-c1ccccc1	106	100	97	3
CCCCCCN1CC(O)=C(c2nc3ccccc3[nH]2)C1=N	107	98	96	6
CC(C)(C)C(=O)OCCn1c(=O)c2cc3c(=O)n(CCOC(=O)C(C)(C)C)c(=O)c3cc2c1=O	101	103	95	-1
COc1ccc(CNC(=O)C(C)Sc2nc3ccccc3n2C)cc1 (stereo unspecified)	.	77	84	-21
CN1CCN(C(=O)c2ccc3c(c2)N(Cc2ccc(Cl)cc2)C(=O)c2ccccc2S3(=O)=O)CC1	100	95	85	-36
CN(C)c1ccc(NC(=O)c2nc(-c3ccccc3)n(-c3ccccc3Cl)n2)cc1	106	.	.	14
Cc1ccc(OCC(=O)Nc2ccc3c(c2)sc(=O)n3C)cc1	107	98	87	-3
CCc1ccc(-c2cn3c(n2)sc2cc(C(=O)NCCC4=CCCCC4)ccc23)cc1	105	100	93	.
CCOC(=O)c1cnc(SCc2ccc(Cl)cc2)nc1C(F)(F)F	101	79	87	-16
CC(C)Nc1nc(N2CCN(C3CCCCC3)CC2)nc2c1cnn2C	104	.	.	-8
O=C(CC1Sc2ccccc2NC1=O)Nc1ccc(N2CCOCC2)cc1 (stereo unspecified)	95	111	90	-20
CC1CCCN(C(=O)C2CCCN(S(=O)(=O)c3cccc4nsnc34)C2)C1 (stereo unspecified)	105	89	93	-104
O=C(Nc1ccc(Cl)cc1)c1ccsn1	101	100	94	12
O=C(CSc1ccccn1)c1c[nH]c2ccccc12	.	105	101	-13
CCOc1ccc2nc(Nc3nc(O)cc(=O)[nH]3)nc(C)c2c1	154	73	98	.
CCc1cccc(NC(=O)C2CCC(CNS(=O)(=O)c3ccc(Br)s3)CC2)c1 (stereo unspecified)	101	102	101	11
Cc1onc(-c2ccccc2)c1C(=O)N1CCN(S(=O)(=O)c2ccccc2)CC1	106	103	104	-3
CC(C)Cc1nn2c(=O)cc(COC(=O)c3cccc(NS(C)(=O)=O)c3)nc2s1	101	113	88	.
Cc1cc(C)cc(N2CC(c3nc(-c4cccc(Cl)c4)no3)CC2=O)c1 (stereo unspecified)	98	89	72	.
O=C(CCS(=O)(=O)c1cc2c(cc1Cl)NC(=O)CO2)NCCc1ccccc1	98	120	92	.
Cc1ccc(Br)cc1S(N)(=O)=O	.	111	78	-12
Cc1ccc2c(c1)CCCN2C(=O)CC(=O)N1CCCc2cc(C)ccc21	104	83	90	-6
O=C(Nc1cccnc1Cl)c1nn2c(C(F)(F)F)cc(-c3ccco3)nc2c1Cl	101	.	.	-27
COc1cc(NC(=O)c2cc(S(=O)(=O)N3CCC(C)CC3)cn2C)cc(OC)c1OC	102	89	96	.
COc1cccc(NC(=O)CSc2ccccc2)c1	.	89	76	-6
CCCNS(=O)(=O)c1ccc(OC)c(-c2noc(CC)n2)c1	105	.	.	-25
O=C(Nc1ccc(CCc2nc3ccccc3n2-c2ccccc2)cc1)c1cccnc1	107	.	.	-26
Cc1ccc(CNC(=O)NCCN2CCN(c3ccccc3)CC2)cc1	104	97	90	.
COCCCN1C(=O)c2ccccc2CC1(C)C(=O)NC1CCCCC1 (stereo unspecified)	100&100	98	96	-29&-14
C1=CC2C=CC1c1ccccc12	109	107	94	-9
Cc1nc2ccc(NS(=O)(=O)c3ccccc3C(F)(F)F)cc2s1	.	84	89	1
O=C(CCc1cn(-c2ccccc2)nc1-c1ccc2c(c1)OCO2)NCCC1=CCCCC1	98	.	.	-8
O=C(Cn1nnc(-c2cc(Cl)cc(Cl)c2)n1)c1ccc2ccccc2c1	99	123	87	-4
COc1cccc(CCNC(=O)CCCn2c(=O)c3cccn3c3ccc(Br)cc32)c1	103	.	.	11
C/C=C/C1(/[N+]([O-])=C/c2ccccc2)CCCCC1	103	106	88	-18
CCOc1ccccc1NC(=O)c1ccccc1O	.	23	5	-26
COc1ccc(/C(O)=C2\C(=O)C(=O)OC23C(=O)c2ccccc2C3=O)cc1	99	103	87	-20
COC(=O)c1ccc(OCC2c3cc(OC)c(OC)cc3CCN2C(=O)COc2ccc(Cl)cc2)cc1 (stereo unspecified)	103	115	86	.
Cc1cc(C)cc(C(=O)Nc2c3c(nn2-c2ccccc2C)CS(=O)(=O)C3)c1	104	110	100	.
Cc1cc2c(cc(C(=O)NCc3ccc(Cl)cc3)n2Cc2ccc(Cl)cc2)o1	116	105	82	.
Cc1cc(C)n2nc(SCCC(=O)NCc3ccccc3)nc2n1	105	84	89	4
CS(=O)(=O)c1ccc(CC(=O)O)cc1	104	89	87	-22
CCOc1ccccc1CNC(=O)c1cnc2sc(N3CCC(C)CC3)nn2c1=O	97	102	94	.
Cc1ccc(C)c(NC(=O)C(NS(=O)(=O)c2ccc3c(c2)CCC(=O)N3)c2ccccc2)c1 (stereo unspecified)	107	105	101	6
CCCCS(=O)(=O)N1CCc2cc3cccc(C)c3nc21	103	.	.	-8
CCOC(=O)Cn1c(=O)n(CCc2ccc(OC)c(OC)c2)c(=O)c2cccnc21	98	94	81	-24
O=C(Nc1cccnc1)c1cc2c(s1)-c1ccccc1CC2	105	71	43	-26
CCc1ccc(N2C(=O)c3ccccc3NC2(C)C)cc1	.	99	88	-22
COc1ccc(-c2nc(SCC(=O)NCCc3ccccc3)n[nH]2)cc1	102	75	86	.
CN(Cc1ccccc1)c1nc2c(c(=O)[nH]c(=O)n2C)n1CCCOc1ccccc1	105	101	93	-12
Cc1cc(C)c(S(=O)(=O)N2CCc3ccccc32)c(C)c1	.	86	30	-28
Cc1nc2cc(C(=O)O)ccc2n1-c1ccc(Br)cc1	104	116	99	.
O=C(NCC1COc2ccccc2O1)c1cc(-c2ccco2)nc2ccccc12 (stereo unspecified)	.	80	79	-25
Cc1ccc(Nc2nnc(-c3ccc(C)c(S(=O)(=O)NCC4CCCO4)c3)c3ccccc23)cc1 (stereo unspecified)	112	102	92	.
Cc1ccc(OCCn2c(C3CC(=O)N(Cc4ccc(F)cc4)C3)nc3ccccc32)c(C)c1 (stereo unspecified)	109	60	0	-5
O=C(CCCC(=O)c1ccccc1)Nc1ccc2c(c1)CCC2	100	102	98	.
O=C(Nc1ccc(S(=O)(=O)N2CCCCC2)cc1)c1cc(-c2cccs2)nc2ccccc12	101	118	91	.
CC(=O)n1c2ccccc2c2cc(Cl)ccc21	106	105	95	-3
Cc1cc(NC(=O)c2ccc(NS(=O)(=O)c3ccc(F)cc3)cc2)no1	101	98	82	-32

(list continues)
The line under a structure holds: GIV Gai3 FP | Sa growth inh | Sa growth inh second temp | HCMV UL50-53 inh
CN(C)C(=O)N1CCC(Cc2ccccc2)CC1
  111 | 97 | 102 | 3
CCCc1cc(=O)[nH]c(SCC(=O)c2ccc3c(c2)CCN3S(=O)(=O)CC)n1
  . | 94 | 93 | -25
O=c1c(-c2ccccc2)nnc2c3ccccc3ncn12
  . | 105 | 90 | -26
O=C(CCCN1C(=O)C(c2ccccc2)Oc2cccnc21)NCc1ccccc1 (stereo unspecified)
  102 | . | . | -84
O=C(CCc1c[nH]c2ccccc12)OCC(=O)N1CCc2ccccc21
  . | 101 | 92 | -27
O=C1c2ccccc2C(=O)N1CC(=O)N1c2ccccc2CCc2ccccc21
  98 | 89 | 83 | -15
O=C(c1cnn2c(C(F)(F)F)cc(-c3ccc4c(c3)OCO4)nc12)N1CCN(Cc2ccccc2)CC1
  100 | . | . | -13
Cc1ccc2nc(=S)nc(-c3ccccc3)n2c1
  . | 87 | 91 | -3
Cc1ccc(-n2c(=O)c3c4c(sc3n(CC(=O)Nc3ccccc3C)c2=O)CCCCC4)cc1C
  108 | 89 | 96 | 11
CC1=NN(c2ccccc2)C(=O)C1C=NC1CCS(=O)(=O)C1 (stereo unspecified)
  . | 91 | 106 | 6
c1ccc2nc3c(nc2c1)CCCC3
  107 | 99 | 91 | -42
Cc1ccc(NC(=O)CN2CCN(c3ccccc3F)CC2)cc1F
  109 | 84 | 87 | .
COc1ccccc1N1CCN(C(=O)CN2C(=O)C3CCCCC3C2=O)CC1 (stereo unspecified)
  102 | . | . | -22
Cc1cc(=O)[nH]c2n[nH]c(-c3ccccc3)c12
  97 | 95 | 82 | -7
Cc1cc(OCC(=O)O)c2ccccc2n1
  106 | 107 | 92 | -4
O=C(CSc1nc2ccccc2nc1N1CCCC1)Nc1ccccc1
  105 | 124 | 79 | .
COc1ccc(OC)c(NC(=O)CSc2ccc(-c3sc(C)nc3C)nn2)c1
  103 | 124 | 64 | .
COc1ccccc1NC(=O)CN1C(=O)C(c2ccc(F)cc2)=NC1(C)C
  101 | 109 | 88 | -18
Cc1cc(C)c(NC(=O)Cn2nc3c(cc2=O)CCCC3)c(C)c1
  105 | 124 | 84 | .
Cc1nn(-c2ccccc2)c2c1cc1c(=O)[nH]c(=O)nc-1n2-c1cccc(C(F)(F)F)c1
  108 | . | . | -56

Sorted by number of heavy atoms (high to low): some entries from above.
The line under a structure holds: GIV Gai3 FP | Sa growth inh | Sa growth inh second temp | HCMV UL50-53 inh
Cc1nn(-c2ccccc2)c2c1cc1c(=O)[nH]c(=O)nc-1n2-c1cccc(C(F)(F)F)c1
  108 | . | . | -56
COc1ccccc1NC(=O)CN1C(=O)C(c2ccc(F)cc2)=NC1(C)C
  101 | 109 | 88 | -18
Cc1cc(C)c(NC(=O)Cn2nc3c(cc2=O)CCCC3)c(C)c1
  105 | 124 | 84 | .
Cc1cc(=O)[nH]c2n[nH]c(-c3ccccc3)c12
  97 | 95 | 82 | -7
Cc1cc(OCC(=O)O)c2ccccc2n1
  106 | 107 | 92 | -4

The list goes on.
The line under a structure holds: GIV Gai3 FP | Sa growth inh | Sa growth inh second temp | HCMV UL50-53 inh
Oc1ccc(Cl)cc1-c1cc(-c2ccco2)[nH]n1
  . | 21 | 24 | 0
CCc1ccccc1OCC(=O)Nc1ccc(S(=O)(=O)Nc2nc(C)cc(C)n2)cc1
  100 | 83 | 77 | -40
CC(C)Cc1ccc(C(C)C(=O)NC(C)C)cc1 (stereo unspecified)
  98 | 91 | 92 | .
CC(C(=O)c1ccccc1)[n+]1ccc2ccccc2c1 (stereo unspecified)
  101 | 89 | 96 | .
Cc1ccc(C(=O)c2oc3ccccc3c2NC(=O)COc2ccccc2C)cc1
  110 | 109 | 96 | -6
